# Assay outcomes (PubChem)
# NPYLR7 ag – mosquito NPYLR7 agonism; HEK293T NPYLR7/Galpha15, GCaMP6s calcium fluorescence; activation, % at 10 µM; hit rate 0.15% among 270,000; in the data active = activation above about 40%;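 note: 0% = vehicle and 100% = reference agonist at the receptor; some compounds past the cut are filed as inactive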
# NPYLR7 ag max-min – recorded beside NPYLR7 ag, whose call it bears; activation, %; measured here: Max-Min RFU normalised activation; some inactives read as strong as hits;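 span of the calcium signal over five minutes; 0% = vehicle and 100% = native peptide agonist; compound fluorescence can raise it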
# * marks the source's active call; other numbers are inactive results; & = joins results of further samples. Only part of the results is shown; the hit share may differ from the screen's.
Molecule,NPYLR7 ag,NPYLR7 ag max-min
O=C1/C(=C/c2ccc(Br)cc2)C=C(c2ccccc2)N1c1ccc2ncccc2c1,-1,1
CCCN(CCC)S(=O)(=O)c1ccc(C(=O)Nc2sc3c(c2C#N)CCCCC3)cc1,-4,-4
CC1(C)CC(=O)C2C(=Nc3ncnn3C2c2cccs2)C1 (stereo not given),4,3
O=C(/C=C/c1ccccc1)N1CCN(c2ccc(Nc3ccncc3)nn2)CC1,5,0
CCN(CC)c1cc(Cl)nc(SCc2cccc(C(=O)N3CCOCC3)c2)n1,-6,0
CCC(c1ccccc1)C1CCCN1C(=O)c1ccc(S(=O)(=O)NC2CC2)cc1 (stereo not given),-3,-7
CC(C)(C)c1c(C(C)(C)C)c(=O)c1=O,11,5
O=S(=O)(NCCN1CCN(c2nc(Cc3ccc(Cl)cc3)ns2)CC1)c1ccc2ccccc2c1,19,30
CCOCCSc1nc(=O)n2cc(C)ccc2n1,2,-2
Cc1ccc(C=CC(=O)NNC(=S)NCC2CCCO2)o1 (stereo not given),-1,0
Cc1ccc2[nH]nc(C(=O)N3CCC4(CC3)NCCNC4=O)c2c1,24,5
COc1ccc(C(=O)N2N=C(C(F)(F)F)CC2(O)c2cccc(OC)c2)cc1 (stereo not given),0,-2
C=CCCC(O)CN(CCN1CCOCC1)Cc1cccn1Cc1ccc(C(C)(C)C)cc1 (stereo not given),0,8
CCN(c1cccc(F)c1)S(=O)(=O)c1cc(C)c(C(=O)O)s1,13,15
O=C(CCC1CCCC1)Nc1nc(-c2ccccc2Cl)cs1,-3,-3
O=C(NCCNC(=O)[C@H]1CCCN1C(=O)Cc1cccs1)c1ccc(F)cc1,1,9
CCCCCCCCc1ccc(C(=O)N2CCCN(Cc3cc(=O)c(OCc4cccc(OC)c4)co3)CC2)cc1,29,21
CC(C)CSc1nnc(SCC(=O)Nc2ccc(F)cc2)s1,2,0
CN(C(=O)c1coc(COc2ccc3c(c2)OCO3)n1)C1CCCc2ccccc21 (stereo not given),-1,-7
CC(C)CN(C)c1ccc(C(=O)NCc2ccccc2NS(C)(=O)=O)cc1,-2,-4
COc1cccc(CSc2nnc(-c3cccc(C)c3)n2-c2ccccc2)c1,19,23
Cc1ccc(-c2nc(C=Nc3ccc(Cl)cc3C)c(O)o2)cc1,-1,-9
CN(C)c1cccc(-c2cc(C3(CNCc4ccccc4)CC3)ccn2)c1,9,21
Cc1ccc(NC(=O)C(C)N(C)Cc2cc(C(C)(C)C)n[nH]2)cc1 (stereo not given),2,0
COC(=O)c1cc(Cn2cc(C(F)(F)F)cc(Cl)c2=O)oc1C,-10,-13
C=c1c(C#N)c2[nH]c(N)c(C#N)c(C)c-2/c1=C/c1cc2c(cc1OCC)OCO2,-1,-5
Cn1ccnc1CN1CCOC(CCNC(=O)NC2CCCC2)C1 (stereo not given),3,0
CCCN(CC(=O)N1CC(=O)N(c2cccc(Cl)c2)C1)C(=O)c1ccc(OC)cc1,11,12
CCc1cnc2c(c1SCc1cc(OC)cc(OC)c1)c(=O)n(C)c(=O)n2C,6,8
CC1CCCCN1S(=O)(=O)c1cccc(C(=O)N=c2sc3ccccc3n2C)c1 (stereo not given),-3,-3
COc1cccc(-c2ccc3c(c2)N(Cc2ccccc2F)C(=O)C(C)S3)c1 (stereo not given),0,-2
CCOc1ccccc1N1CCN(C(=O)c2cc(-c3ccc(OC)cc3)nc3cc(-c4ccc(Cl)cc4)nn23)CC1,7,7
C=CCN(C(C)C(=O)c1c(C)c(C(=O)OCC)n(C)c1C)S(=O)(=O)c1ccc(Cl)cc1 (stereo not given),-9,2
Cc1cc(NC(=O)C(C)(C)N(C)C)ccc1Br,6,4
Cc1cccc(C(=O)N2CCSC23CCN(C(=O)c2ccc(C)c([N+](=O)[O-])c2)CC3)c1,-2,9
COc1cn(CC(=O)Nc2ccccc2C)c(CSc2ccccc2)cc1=O,-5,-12
CC(OC(=O)c1ccc(OCc2ccccc2)cc1)c1nnc(-c2ccccc2)o1 (stereo not given),0,-5
CN(CC(O)CN1CCOCC1)C1C=CCCC1 (stereo not given),1,-5
CCC(c1nc2ccccc2c(=O)n1-c1ccc(Br)cc1)N(CCc1ccccc1)C(=O)c1ccccc1Cl (stereo not given),-4,-1
O=C(c1cnccn1)N(CC1CCCO1)C1(C(=O)NC2CCCC2)CCCCC1 (stereo not given),2,-2
CC1Cc2ccccc2N1Cc1ccoc1C(=O)Nc1ncn[nH]1 (stereo not given),-5,-5
Cc1ccc(C)c(S(=O)(=O)N(C)C2CCS(=O)(=O)C2)c1 (stereo not given),-1,-3
CCCC(=O)N1CCCC1(C)C(=O)NCc1ccc(SC)cc1 (stereo not given),5,0
CCCCn1c(N)c(N(Cc2ccco2)C(=O)c2ccoc2C)c(=O)[nH]c1=O,12,3
O=C(Nc1cccc(Cl)c1)C(C1CCCC1)N1CCN(C(=O)c2cccc(Br)c2)CC1 (stereo not given),-3,-1
COc1ccc(CC(=O)Nc2c(C)nc3ccc(C)cn3c2=O)cc1,1,-1
Cc1ccc(F)cc1-c1ccc(N)nc1,-5,-3
C#CCSc1nc(=O)n2cccc(C)c2n1,15,12

# One compound at a time, as listed above. Order of screens: NPYLR7 ag | NPYLR7 ag max-min
# COc1ccc(CC(=O)Nc2c(C)nc3ccc(C)cn3c2=O)cc1 in the list: 1 | -1
# O=C(Nc1cccc(Cl)c1)C(C1CCCC1)N1CCN(C(=O)c2cccc(Br)c2)CC1 (stereo not given) in the list: -3 | -1
# C#CCSc1nc(=O)n2cccc(C)c2n1 in the list: 15 | 12

# Further records.
Molecule,NPYLR7 ag,NPYLR7 ag max-min
O=C(c1ccc(Cl)cc1)C1CCNCC1,6,3
C=CCN(Cc1ccc(OC)cc1)C(=O)c1ccc2c(c1)NC(=O)CO2,-4,-5
O=c1[nH]c(=O)n(-c2nc3ccccc3o2)cc1Cl,-7,-8
OC(COc1ccccc1)CSc1nc2ccccc2o1 (stereo not given),17,7
CC(C)(C(=O)N1CCCN(CC(N)=O)CC1)c1ccc(Cl)cc1,10,4
O=S1(=O)CCC(N=Nc2c(O)[nH]c3ccc(Br)cc23)C1 (stereo not given),0&4,-4&30
CC(C)(Cn1c(=O)[nH]c2ccccc2c1=O)c1ccccc1,-4,-4
COc1ccc(/C=N\Nc2nc(N3CCOCC3)nc(N3CCOCC3)n2)cc1,-1,-9
FC(F)(F)c1cc(-c2cccs2)nc(-n2ccnc2)n1,-6,-3
COc1ccccc1CNC(=O)c1cc2c(=O)n(C)c(=O)n(C)c2s1,5,5
CCc1cc2c(=O)c(Oc3ccc(F)cc3)c(C(F)(F)F)oc2cc1OC(C)=O,13,4
N#CC(=Cc1cccc2ccccc12)c1ccccn1,4,1
Cc1cc(C)cc(CCC(=O)N2CCN(c3cc(C)nc(N)n3)CC2)c1,2,-1
Cc1ccc(-c2nc(Nc3cccc(C(F)(F)F)c3)c3ccccc3n2)cc1,24,17
Cc1ccc(NC(=O)Cn2nc3c(=O)n(-c4ccc(Br)cc4)ccn3c2=O)cc1C,9,7
CN(C)CC1CCC(NC(=O)CSc2ccc(Cl)cc2)CC1 (stereo not given),-2,22
COCCNC(=O)C(NC(=O)C1CC1)C1CCN(C(=O)c2ccccc2F)CC1 (stereo not given),13,16
Cc1ccc2c(C)c(C(=O)N[C@H](CO)Cc3ccccc3)oc2c1,8,7
O=C(CCC1CCCC1)N(Cc1ccco1)CC1CCCO1 (stereo not given),6,4
CCN1CCCC(NS(=O)(=O)c2ccc(C(C)C)cc2)C1 (stereo not given),1,-3
Cc1ccc(C2=N/C(=C\c3cn(-c4ccccc4)nc3-c3ccccc3)C(=O)O2)cc1,-10,-13
O=C(c1cccs1)N1CCN(c2nc3nccc(-c4cccc(C(F)(F)F)c4)n3n2)CC1,-1,-3
CC(=O)Nc1ccc(C2=NNC(=NC(C)(C)C)SC2)c(F)c1,-2,5
CC(C)CCN(Cc1c(-c2ccc(F)cc2)noc1N1CCN(C)CC1)C(=O)c1ccco1,-1,5
CCOc1ccc(N=Cc2nc(-c3ccccc3)oc2O)cc1,1,3
Cc1nccn1CCCC(=O)N1CCc2c(nc(N(C)C)[nH]c2=O)C1,6,6
O=C(NC1CC2CCC(C1)N2CC1CCCO1)c1ccc(F)cc1C(F)(F)F (stereo not given),3,8
CS(=O)(=O)c1ccc(NC(=O)CCc2ccccc2Cl)cn1,1,1
COC(=O)C1CCCCN1CCOc1ccc(F)cc1 (stereo not given),14,8
CCCCOc1ccc(C(=O)Nc2c(C)nc3cc(C)ccn3c2=O)cc1,2,1
CC(=O)c1ccccc1-c1ccc2c(c1)CC(CNC(=O)Cc1ccccc1C)O2 (stereo not given),17,-1
COc1cc(OC)c(NS(=O)(=O)c2cccc(Br)c2)cc1Cl,1,-1
Cc1ccc(-n2ncc3c(=O)n(NC(=O)c4ccco4)cnc32)cc1C,1,-2
O=C(C1CCN(C(=O)[C@@H]2CCCN2C(=O)Nc2ccccc2OC(F)F)CC1)N1CCCCC1,31,18
CCN1CCN(C(c2ccccc2)C2Sc3nc(-c4ccco4)nn3C2=O)CC1 (stereo not given),-3,-6
Cc1ccc(-n2nc3c(c2NC(=O)c2ccc(N4C(=O)CCC4=O)cc2)CSC3)cc1,10,17
CC(C)CN(Cc1cccn1Cc1ccccc1Cl)C(=O)CN(C(=O)N(C)C)C(C)C,0,15
Cc1ccc(NC(=O)N2CCN(CCCOC(c3ccc(Cl)cc3)c3ccc(Cl)cc3)CC2)cc1F,-2,-1
COc1cccc(C2C(C(=O)c3cccs3)=C(O)C(=O)N2CCCN(C)C)c1OC (stereo not given),5,-1
CCOC(=O)Cc1c(C)nc2ncnn2c1N1CCN(C(=O)C(C)Oc2ccccc2)CC1 (stereo not given),27,15
Cc1cc(C)c(NC(=O)CSCc2ccc(F)cc2)c(C)c1,-10,-11
Cn1c(Cl)cnc1CN(C1CC1)C1CCCc2ccccc21 (stereo not given),-2,12
Cc1n[nH]c(C)c1CC(=O)N[C@H]1C[C@H]2CN(C)CCN2C1,1,0
COC(=O)c1nn(-c2cccc(Cl)c2)c2nc3ccccc3n12,-2,-6
CCOC(=O)C1CCCN(C(=O)c2cc3n(n2)CCN(Cc2cccc(C(F)(F)F)c2)C3=O)C1 (stereo not given),17,28
COc1ccc(CCC2CCCN(C(=O)c3cnc(N)nc3C)C2)cc1 (stereo not given),-2,24
CC1(C(=O)Nc2ccccc2)CCN1C(=O)Cc1ccc(-c2ccccc2)cc1 (stereo not given),2,2
O=C(NCCc1c[nH]c(=O)[nH]c1=O)c1scc2c1CCCC2,24,14
CCCCN(CC(=O)N1CCc2sccc2C1c1ccc(OC)cc1)S(=O)(=O)c1cccc(C(F)(F)F)c1 (stereo not given),6,9
O=C(c1ccccc1)N1CCn2c(nnc2C(=O)N2CCCCC2)C1,8,4
COC(=O)Cn1c(=NC(=O)CN2C(=O)CCC2=O)sc2cc(OC)ccc21,-3,-6
CCCCSc1nc2c(c(=O)[nH]1)C(c1cccs1)C(C(=O)OC(C)C)C(C)=N2 (stereo not given),17,13
O=C(NCCn1nc(-c2ccco2)ccc1=O)c1ccc2c(c1)ncn2-c1ccccc1,0,0
Cc1ccc(F)c(S(=O)(=O)NCC(C)N2CCCCC2C)c1 (stereo not given),-3,-3
CSc1ccc(NC(=O)N2CCc3nc(Cc4ccccc4F)[nH]c(=O)c3C2)cc1,24,22
COc1ccc(C)cc1C(C)Nc1ccccc1C#N (stereo not given),1,0
O=C(CCc1c[nH]c2ccccc12)N1CCOC(COCc2ccccc2F)C1 (stereo not given),29,39
OCC1(O)CCCN(Cc2noc(C3CCCC3)n2)C1 (stereo not given),-3,-6
Cc1cccc(NC(=O)Nc2ccc(N3CCCC3)c(C(=O)NC(C)c3ccccc3)c2)c1 (stereo not given),1,2

# Entries listed so far with an aryl thioether with sulfur outside any ring, in the order listed:
Molecule,NPYLR7 ag,NPYLR7 ag max-min
CCN(CC)c1cc(Cl)nc(SCc2cccc(C(=O)N3CCOCC3)c2)n1,-6,0
CCOCCSc1nc(=O)n2cc(C)ccc2n1,2,-2
CC(C)CSc1nnc(SCC(=O)Nc2ccc(F)cc2)s1,2,0
COc1cccc(CSc2nnc(-c3cccc(C)c3)n2-c2ccccc2)c1,19,23
CCc1cnc2c(c1SCc1cc(OC)cc(OC)c1)c(=O)n(C)c(=O)n2C,6,8
COc1cn(CC(=O)Nc2ccccc2C)c(CSc2ccccc2)cc1=O,-5,-12
CCCC(=O)N1CCCC1(C)C(=O)NCc1ccc(SC)cc1 (stereo not given),5,0
C#CCSc1nc(=O)n2cccc(C)c2n1,15,12
OC(COc1ccccc1)CSc1nc2ccccc2o1 (stereo not given),17,7
CN(C)CC1CCC(NC(=O)CSc2ccc(Cl)cc2)CC1 (stereo not given),-2,22
CCCCSc1nc2c(c(=O)[nH]1)C(c1cccs1)C(C(=O)OC(C)C)C(C)=N2 (stereo not given),17,13
CSc1ccc(NC(=O)N2CCc3nc(Cc4ccccc4F)[nH]c(=O)c3C2)cc1,24,22
